# Assay outcomes: PubChem BioAssay, National Center for Advancing Translational Sciences (NCATS)
# TRPV1 potentiator: enhances activation of the human vanilloid receptor TRPV1; TRPV1-expressing cells, Fluo-8 calcium influx, capsaicin EC20 potentiation; host cell line not named in the record; control for the full effect not named in the record; potentiation, % at 8.33 µM; hit rate 0.02% among 320,000; AID 540277; active means potentiation above 80%; inconclusive means 30% to 80%; inactive means below 30%; further: 0% is about no effect
#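 Cells expressing TRPV1 were dye-loaded with Fluo-8 and read kinetically: 10 s baseline, 3 min after compound (agonist portion), then 2 min after EC20 capsaicin (allosteric enhancer portion). Calcium-bound dye fluorescence at 480/520 nm.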
# ClpP mod: qHTS Assay for Activators of ClpP; purified B. subtilis ClpP, FRET peptide cleavage, 20 min; Potency, µM (highest dose often 57.5 µM), inactives show at the top dose activity change, negative = active; AID 651965, 2013; ATP-dependent Clp protease proteolytic subunit (Bacillus subtilis (strain 168)), P80244; hit rate 1.9% among 340,000; active = well fitted falling curve with a large enough effect; inconclusive = small, poorly fitted or top-dose-only effect; inactive = no such curve, though single readings can be large or run the other way; further: potency means the concentration at half of the fitted maximal effect; the source files actives as falling curves though it sought activators and does not explain the sign; nearly all actives have a fitted effect of over 65% in size; many hits overshoot -100%
# Target sequence (P80244 whole entry, looked up): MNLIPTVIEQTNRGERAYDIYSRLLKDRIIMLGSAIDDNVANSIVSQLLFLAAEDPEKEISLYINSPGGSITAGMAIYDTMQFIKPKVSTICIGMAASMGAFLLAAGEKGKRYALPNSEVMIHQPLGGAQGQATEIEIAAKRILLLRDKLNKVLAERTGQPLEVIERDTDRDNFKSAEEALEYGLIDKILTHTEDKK
#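 ClpP 10 microg/mL final, pH 8 Tris/KCl buffer with BSA, glycerol, Tween-20; compound pinned in; FRET-FV substrate; RT 20 min; Ex320/Em430; ΔFRET vs ADEP 5.8 microM, DMSO, no enzyme.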
# PINK1 expr mod: PINK1 expression modulation; PINK1 immunofluorescence, high-content cytometry, 24 h; hit rate 0.2% among 410,000; AID 624263; Potency, µM (titrated, usually from 76.6 µM), for the others: top-dose activation (PINK1 increase), hits mostly activators; active = well fitted activation curve with a large enough effect; inconclusive = small, poorly fitted or top-dose-only effect; inactive = flat fitted curve, though single readings scatter; cell line not stated here;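 further: potency means the concentration at half of the fitted maximal effect; % of control where 0% means no effect; nearly all actives have a fitted effect of over 65% in size; a mitochondrial uncoupler was the plate control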
#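 Fluorescence from anti-PINK1 antibody, together with nuclear and cell stains, was scanned on a laser-scanning cytometer. Before staining, stable-line cells were incubated 24 hours with compounds at 5 concentrations; primary antibody 12 h at 10 degrees C.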
# TRPML1 agonist: human mucolipin-1 channel agonism | hit rate 0.12% among 410,000 | TRPML1-expressing cells, Ca2+ dye fluorescence, FDSS; host cell line not named in the record; reference of the full effect not given here | activation, % (test concentration not listed) | Q9GZU1; in the data active = activation above about 50%; inconclusive = about 30% to 50%; inactive = below about 30%; further: 0% is about no effect; the text of the record puts the active cut at 80%
# Target sequence (Q9GZU1 whole entry, looked up): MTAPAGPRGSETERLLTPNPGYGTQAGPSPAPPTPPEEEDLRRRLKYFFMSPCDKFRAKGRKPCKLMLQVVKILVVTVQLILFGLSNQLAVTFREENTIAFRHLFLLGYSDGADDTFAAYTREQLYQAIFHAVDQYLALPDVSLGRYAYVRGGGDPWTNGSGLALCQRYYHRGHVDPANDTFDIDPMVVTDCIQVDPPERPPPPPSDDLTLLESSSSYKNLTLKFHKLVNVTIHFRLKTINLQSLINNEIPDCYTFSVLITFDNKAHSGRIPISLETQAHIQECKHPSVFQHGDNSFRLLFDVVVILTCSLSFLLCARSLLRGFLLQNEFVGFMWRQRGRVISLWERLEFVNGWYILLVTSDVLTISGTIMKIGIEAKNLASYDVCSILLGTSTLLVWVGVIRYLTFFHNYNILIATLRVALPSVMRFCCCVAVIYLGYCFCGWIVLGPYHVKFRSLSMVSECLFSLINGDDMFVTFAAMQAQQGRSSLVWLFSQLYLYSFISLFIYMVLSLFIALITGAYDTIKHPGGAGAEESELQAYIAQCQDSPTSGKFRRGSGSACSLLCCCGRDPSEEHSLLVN
#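 Calcium fluorescence on an FDSS kinetic reader gave the read-out. Tet-induced TRPML1-DL cells were plated overnight, dye-loaded (Ca8 with quencher, 45-90 min, room temperature, dark), then read 110 s after compound addition, and again 110 s after 4uM final 54-4 (EC80).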
# TRPML1 blocker: inhibitors of human TRPML1 channel. TRPML1-inducible cells, Ca2+ dye fluorescence, FDSS; stronger effect = lower value; inhibition of EC80 agonist-evoked calcium signal. hit rate 0.02% among 390,000. activity change, negative = inhibition, % (no concentration beside the values). Q9GZU1; in the data active means activity change below about -50%; inconclusive means about -30% to -50%; inactive means above about -30%;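 further: stimulus is agonist 54-4 at its EC80 concentration; on the % scale 0 is the no-effect control and ±100 the full control effect; compound concentration not given in the record; the text of the record puts the active cut at -80%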
#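 Tet-induced TRPML1-DL cells loaded with Ca8 no-wash calcium dye were read kinetically on FDSS. Compound addition was followed by EC80 agonist 54-4 (4 uM final); inhibition was read over 110 s.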
# Menin-MLL FL inh: inhibitors of human menin-MLL interaction, wild-type MLL peptide; Fluorescence polarization, fluorescein-MLL peptide displacement from menin; FP activity change, % at 61.4 µM; 290,000 tested, under 10 active; AID 1766; inconclusive = falling polarisation curve, or a change in total fluorescence; inactive = total fluorescence flat and polarisation flat or rising; no compound was filed as active; the % refers to the polarisation; negative = inhibition;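 further: % of control where 0% means no effect; inhibitors lower the polarisation; unlabelled MLL peptide was the positive control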
# Sfp inh: inhibitors of Bacillus subtilis Sfp phosphopantetheinyl transferase. Q9F4F7. Biochemical Sfp PPTase activity, qHTS. Potency, µM, for the others: max response, negative = inhibition, hits mostly inhibitors. hit rate 3.5% among 310,000. AID 1490; active means well fitted inhibition curve with a large enough effect; inconclusive means small, poorly fitted or top-dose-only effect, or another doubt; inactive means no such curve, though single readings can be large or run the other way;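 further: the enzyme is Sfp with the accession as filed and its product quenches rhodamine fluorescence; potency means the concentration at half of the fitted maximal effect; 0% = enzyme reaction without inhibitor and -100% = no enzyme wells; top concentration of the series not given in the record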
#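 Buffer: 50 mM Hepes-Na pH 7.6, 10 mM MgCl2, 0.01% Nonidet P-40, 0.01% BSA. Enzyme 15 nM, pre-exposed to compound 15 min; substrates then added and fluorescence change tracked over 30 min.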
# Active calls of the source: *; ? = inconclusive; nt = no result given; [ ] = remark or other dose.
SMILES,TRPV1 potentiator,ClpP mod,PINK1 expr mod,TRPML1 agonist,TRPML1 blocker,Menin-MLL FL inh,Sfp inh
CN(C)CCOc1ccc(-c2c(-c3ccsc3)sc3ccccc23)cc1,nt,-8.9%,-0.7%,-0.7,-7.8,nt,nt
CC(=O)N1c2ccc(S(=O)(=O)NCC3CCC(C(=O)Nc4ccc(C)cn4)CC3)cc2CC1C (configuration not stated),8.3,0.6%,0.0%,-1.0,-9.0,nt,19.9%
CCCOc1ccc(N2CC(C(=O)Nc3ccc(N4CCOCC4)cc3)CC2=O)cc1 (configuration not stated),-1.7,3.6%,11.4%,0.2,1.0,-2.2,-2.5%
Cc1cccc(C(=O)N/N=C/c2ccc3c(c2)OCO3)n1,-12.3,-0.9%,-0.4%,-0.4,-0.3,-0.2,14.9%
O=C(c1cccs1)N1CCN(c2ncc(C(F)(F)F)cc2Cl)CC1,-10.1,-0.2%,1.4%,1.6,39.8,nt,-6.1%
Cc1ccc(NC(=O)CCC(=O)c2cccs2)c(Br)c1,5.3,-0.3%,-0.1%,0.9,-5.9,0.6,3.9%
O=C(Nc1ccccc1C(=O)O)c1ccccc1,11.9,0.5%,9.1%[38.3 µM],-0.4,14.5,1.4,26.3%
Cc1cccc(C)c1-n1nnnc1C(c1ccccc1OC(F)(F)F)N1CCN(C/C=C/c2ccccc2)CC1 (configuration not stated),nt,-1.2%,0.9%,1.3,nt,nt,nt
CCOC(=O)C1=C(N)n2c(s/c(=C\c3ccncc3)c2=O)=C(C(=O)OCC)C1c1ccncc1 (configuration not stated),-4.3,nt,8.6%,-0.3,40.3,0.8,14.4%
Cn1c(=O)c2c(SCc3cccnc3)nc(C3CC3)nc2n(C)c1=O,4.8,0.1%,0.4%,1.0,25.2,1.3,-14.7%
O=C(NC1CCN(C(=O)Nc2cccc(Cl)c2)CC1)c1ccccc1,-14.4,nt,2.1%,-0.5,-21.4,-4.3,9.5%
CCOC(=O)C1CCCCN1Cc1ccc(OC)c(OC)c1OC (configuration not stated),5.3,0.4%,-0.9%,-0.3,10.3,3.2,-18.5%
N#Cc1cccc(NC(=O)CC2CCCC2)c1,16.4,nt,0.2%,0.8,10.5,3.6,13.1%
COc1ccc(OC)c(-c2csc(N(CC3CCCO3)C(=O)C3CCCCC3)n2)c1 (configuration not stated),5.0,-1.5%,2.5%,0.5,56.3,-0.5,7.9%
CCC1CCC(N2CCN(c3cccc(OC)c3)CC2)CC1 (configuration not stated),2.7,-1.8%,0.7%,0.8,3.2,1.2,-9.7%
Cc1ccc(N2CN(Cc3ccco3)CNC2=S)cc1,-3.8,nt,0.8%,0.1,-24.3,1.4,20.3%
CCCn1c(SCC(=O)c2cc(C)ccc2C)n[nH]c1=O,20.5,-1.9%,-0.7%,0.0,-13.9,2.6,-0.9%
Cc1onc(-c2ccccc2)c1C(=O)OCc1nnc(-c2ccc([N+](=O)[O-])cc2)o1,3.7,-1.5%,1.3%,3.9,12.2,nt,nt
CCOc1cc(C2C(C(=O)OC)=C(C)NC3=C2C(=O)c2ccccc23)cc(Br)c1OCC (configuration not stated),nt,-0.5%,11.2%,-0.2,3.5,nt,nt
CN1CCN(CCc2nc3cc(NC(=O)c4ccco4)ccc3n2C)CC1,2.5,nt,-0.6%,-0.1,23.2,-1.5,5.1%
CCC(C(=O)O/N=C(\N)c1ccccc1)c1ccccc1 (configuration not stated),-1.5,0.0%,3.3%,-0.4,-0.4,-2.3,-8.8%
S=C(Nc1ccccc1)Nc1ccc2ccccc2c1,nt,nt,0.4%,1.7,-10.8,nt,nt
CCCn1c(C)cc(C(=O)CN2C(=O)NC3(CCCCCC3)C2=O)c1C,nt,-0.4%,?,-0.4,-19.2,nt,nt
Fc1ccc(-n2c(Cn3nnc4ccccc43)n[nH]c2=S)cc1,-1.4,-1.5%,2.5%,-0.2,-4.0,-0.5,-28.2%
CCOc1ccc(-c2n[nH]c(=S)n2Cc2ccccc2)cc1,16.2,-19.0%,1.2%,nt,nt,-4.1,3.2%
CSc1ccc(CNCCCN(C)C)cc1,-3.7,-0.3%,-0.3%,0.2,-4.2,2.2,-6.3%
CCOC(=O)c1cc2c(=O)n3ccccc3nc2n(CCCOC)c1=NC(C)=O,11.5,35.5µM*,3.8%,-0.9,-11.7,2.9,0.1%
Cc1ccccc1SCC(=O)OCC(=O)N(C)c1c(N)n(Cc2ccccc2)c(=O)[nH]c1=O,-15.8,2.0%,-2.2%,-0.5,-3.1,nt,nt
CC1CCC(NC(=S)NCCN(C)C)CC1 (configuration not stated),8.3,-0.3%,1.1%,-1.0,-17.6,-0.5,?
COc1ccc(C(=O)NC(C)c2nnc(SCC(=O)NC3CCCCC3)n2C)cc1 (configuration not stated),8.1,-2.7%,4.4%,-0.5,-5.1,nt,10.4%

# 3 successive entries from above, quoted:
SMILES,TRPV1 potentiator,ClpP mod,PINK1 expr mod,TRPML1 agonist,TRPML1 blocker,Menin-MLL FL inh,Sfp inh
CN(C)CCOc1ccc(-c2c(-c3ccsc3)sc3ccccc23)cc1,nt,-8.9%,-0.7%,-0.7,-7.8,nt,nt
CC(=O)N1c2ccc(S(=O)(=O)NCC3CCC(C(=O)Nc4ccc(C)cn4)CC3)cc2CC1C (configuration not stated),8.3,0.6%,0.0%,-1.0,-9.0,nt,19.9%
CCCOc1ccc(N2CC(C(=O)Nc3ccc(N4CCOCC4)cc3)CC2=O)cc1 (configuration not stated),-1.7,3.6%,11.4%,0.2,1.0,-2.2,-2.5%

# Other compounds follow.
SMILES,TRPV1 potentiator,ClpP mod,PINK1 expr mod,TRPML1 agonist,TRPML1 blocker,Menin-MLL FL inh,Sfp inh
Cc1ccc(CNC(=O)CS(=O)(=O)CC(=O)O)cc1,2.5,-1.4%,1.2%,0.2,-5.0,2.5,24.9%
CCc1cccc2c(C(=O)COC(=O)c3nn(C)c(=O)c4ccccc34)c[nH]c12,15.8,-6.9%,-2.8%,0.8,-6.7,3.2,?
CCNC(=O)C1(C)CCCN(Cc2cccc3c2OCCO3)C1 (configuration not stated),nt,0.2%,2.3%,-0.6,nt,nt,nt
COc1ccc(/C=C/C(=O)OCC(=O)NC2CCCC(C)C2C)c(OC)c1 (configuration not stated),nt,?,6.3%,3.2,3.3,nt,nt
CCOc1ccc(NC(=O)CN(C)C(=O)c2ccc(COc3ccccc3)o2)cc1OCC,-2.3,0.5%,1.4%,-0.5,20.4,nt,nt
Cc1cc2c(cc1S(=O)(=O)Nc1cccc(C#N)c1)OCC(=O)N2,nt,0.8%,0.2%,0.3,3.2,nt,nt
Cc1cc(NC(=O)CCC(=O)N(Cc2ccccc2)C(C(=O)NC2CCCC2)c2ccco2)no1 (configuration not stated),-12.5,nt,0.3%,1.7,-8.1,-1.8,19.6%
O=C(O)CNC(=O)c1ccc(NC(=O)/C(=C/c2cccc([N+](=O)[O-])c2)NC(=O)c2ccco2)cc1,6.0,1.1%,0.2%,-0.2,16.5,-1.2,6.8%
Cc1ccc(C2c3[nH]c4ccccc4c3CCN2C(=O)CCC2CCCC2)cc1 (configuration not stated),nt,-4.7%,2.8%,0.1,-2.4,nt,nt
Cc1cc(C(=O)NC2CCCN(Cc3ccc(Cl)cc3)C2)no1 (configuration not stated),-30.4,0.2%,1.2%,0.2,8.6,0.8,-0.8%
O=C1CC(c2ccc3c(c2)OCO3)c2cc3c(cc2N1)OCCO3 (configuration not stated),-9.1,-2.9%,-1.9%,1.5,36.9,3.9,-14.1%
Cc1ccc(/C=C2/Sc3ccc(C(=O)NCCN4CCOCC4)cc3NC2=O)cc1,-1.9,1.8%,2.2%,0.2,6.6,nt,-10.3%
CCOc1ccccc1NS(=O)(=O)c1ccc2c(c1)N(C)CCO2,9.8,-1.6%,0.2%,3.6,-9.4,nt,1.3%
CCOC(=O)C1=CCC2C(=O)N(CC)C(=O)C12 (configuration not stated),nt,-2.3%,2.0%,-0.3,-12.1,nt,nt
c1ccc(COc2cccc(CNCc3cccs3)c2)cc1,11.8,-0.5%,22.7%,2.7,8.4,5.3,-13.9%
CC(=O)C[C@H](O)CC(=O)[C@@H]1OC(=O)[C@H](C)C/C=C\Cc2ccccc21,nt,3.1%,-1.0%,0.1,47.2,nt,nt
CCN(CC)c1nc(=S)nc(NC(C)(C)C)[nH]1,-5.0,-4.0%,1.0%,2.1,10.5,2.7,7.8%
Cc1nn(CC(=O)N2CCOCC2)c(=O)c2ccccc12,-0.9,-2.8%,-0.9%,-0.2,-1.9,1.2,16.5%
O=C(c1ccc(-n2cccn2)cc1)N1CCc2c([nH]c3ccccc23)C1c1ccccn1 (configuration not stated),13.0,-5.0%,-0.7%,1.3,-4.4,5.6,-9.1%
CC1CC(=O)N(CCc2ccccc2)C(=O)C1,nt,nt,-1.9%,1.1,31.9,nt,nt
CC1CN(S(=O)(=O)c2cccc(C(=O)Nc3ccc(S(=O)(=O)NC4=NCCCCC4)cc3)c2)CC(C)O1 (configuration not stated),-7.3,0.6%,2.4%,-0.4,-1.8,nt,nt
O=[N+]([O-])c1ccc(Cl)cc1Sc1ccccn1,-14.8,-2.0%,0.4%,2.0,21.1,0.6,-4.8%
O=C(Nc1cccc(S(=O)(=O)N2CCCCC2)c1)c1ccco1,-19.5,2.1%,2.6%,-0.7,-1.2,nt,nt
CCOc1ccc(C(=O)N(C)C2CCS(=O)(=O)C2)cc1 (configuration not stated),0.5,2.4%,1.9%,-0.7,-5.1,4.8,17.5%
O=C1c2ccccc2C(=O)C1C1=Nc2ccccc2NC(c2ccccc2)C1 (configuration not stated),-1.8,nt,nt,nt,nt,-0.3,14.9%
O=C(CC1SCCNC1=O)Nc1ccc(Cl)cc1 (configuration not stated),3.8,nt,1.4%,-0.5,13.8,-2.4,13.9%
COc1ccc(Cc2nnc(SCC(=O)NCCc3ccccc3)o2)cc1,-7.9,0.8%,-5.2%,-1.4,4.5,-0.1,13.3%
CCN(CC)CCN(C)C(c1cc2ccccc2o1)c1nnnn1C(C)(C)C (configuration not stated),nt,-2.1%,-1.1%,-0.6,nt,nt,nt
C[C@H]1CN([C@@H](C)CO)S(=O)(=O)c2ccc(Br)cc2O[C@H]1CN(C)C(=O)CCN1CCCCC1,nt,-1.9%,2.3%,-0.3,-12.6,nt,nt
